Screens as filed in PubChem BioAssay.
HNF4A DNA FP: change in binding of human HNF4A to DNA, primary screen, biochemical, fluorescence polarization, FITC-DNA | 1 h | activity change, % at 10 µM | actives 0.3% (n = 360,000); in the data active means activity change above about 30%, passing the limit was not always enough;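 further: controls were the assay level and a saturating level of protein; the project sought stronger binding though the title names inhibitors; some compounds called inactive have numbers as strong as hits; positive values seem to mean higher polarization but the record does not say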
Target sequence (P41235 whole entry, looked up): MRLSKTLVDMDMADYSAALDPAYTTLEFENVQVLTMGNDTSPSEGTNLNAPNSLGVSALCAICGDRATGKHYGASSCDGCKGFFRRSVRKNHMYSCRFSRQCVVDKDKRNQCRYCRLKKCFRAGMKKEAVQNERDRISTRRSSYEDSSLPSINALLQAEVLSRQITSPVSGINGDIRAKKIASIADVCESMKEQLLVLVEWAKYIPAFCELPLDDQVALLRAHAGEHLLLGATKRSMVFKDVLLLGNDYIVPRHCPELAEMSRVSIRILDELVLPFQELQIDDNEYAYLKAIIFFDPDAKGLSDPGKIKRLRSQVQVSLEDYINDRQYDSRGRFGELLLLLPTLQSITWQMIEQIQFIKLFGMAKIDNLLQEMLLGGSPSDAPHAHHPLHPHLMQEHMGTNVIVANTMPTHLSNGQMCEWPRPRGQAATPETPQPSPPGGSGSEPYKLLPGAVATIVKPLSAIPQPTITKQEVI
The depositor's hits bear a star. Only part of the results is shown. The share of hits here may be higher or lower than overall.

molecule	HNF4A DNA FP
CCOC(=O)C1=CCC(c2cccc3ccccc23)N(S(=O)(=O)c2ccc(C)cc2)C1 (stereo not given)	2.5
COC(=O)[C@@]12C[C@@H](CC(=O)N3CCN(C(=O)C4CC4)CC3)C(=O)N(Cc3ccco3)C1=CCC(C)(C)C2	0.4
CCc1ccc(C(O)c2ncc(-c3cccc4ccccc34)[nH]2)cc1 (stereo not given)	-1.2
CCC[C@@H]1C=C(C(=O)OCC)[C@H](c2ccccc2)N1S(=O)(=O)c1ccc(C)cc1	1.0
CC1(C(=O)Nc2cccc(C(F)(F)F)c2)Cc2c(-c3ccc4c(c3)OCO4)ccnc2O1 (stereo not given)	0.9
COc1ccc(S(=O)(=O)n2c(N)nc3ccccc32)cc1	-5.6
O=C(Cn1cc(COc2ccc(-n3cccc3)cc2)nn1)NS(=O)(=O)c1ccccc1C(F)(F)F	5.7
O=C(/C=C/[C@H]1O[C@@H](n2cnc3c(NC(=O)c4ccccc4)ncnc32)[C@H](O)[C@@H]1O)NCc1ccc2c(c1)OCO2	1.6
CCCCC[C@@H](C)N1C[C@@H](COCc2ccccc2)Oc2cc(N3CCC[C@H]3COC)ccc2S1(=O)=O	-4.2
CC(C)Nc1nc(NCCOc2ccccc2)c2sccc2n1	-1.2
COc1ccccc1-c1csc(C(O)c2ccccc2)n1 (stereo not given)	5.7
COc1ccc(-c2ccc(N3C(c4ccsc4)=Cc4ccc(F)cc4C3c3c[nH]c4ccccc34)cc2)cc1 (stereo not given)	-0.1
COC(=O)[C@]12CCCCC=C1N(Cc1ccccc1)C(=O)[C@H](CC(=O)NCCCN1CCCC1=O)C2	-1.6
CCOC(=O)N1CCN(C(=O)C[C@@H]2C[C@@]3(C(=O)OC)CC(C)(C)CC=C3N(Cc3ccc4c(c3)OCO4)C2=O)CC1	2.0
CN(CCc1ccccc1)C(CCc1ccccc1)C(=O)Nc1ccc2c(c1)OCCO2 (stereo not given)	-5.9
CCc1nc2ccc(C(=O)N3CCN(C(C)=O)CC3)cn2c1N(C)C(=O)c1cccc(OC)c1	1.2
CCCCc1c(-c2ccccc2OC)ncn1CCc1ccc(OC)cc1	-2.2
CC1(C(=O)Nc2ccc3ccccc3c2)CCC(=O)N1C1CC1 (stereo not given)	2.0
CN(Cc1ccccc1)C(=O)c1ccc(Cc2cn(C)c3ccccc23)nc1	-2.6
CC1(Cc2ccc3ccccc3n2)C(=O)Nc2ccc(OC(F)(F)F)cc21 (stereo not given)	-1.9
OC(c1ccccc1)(c1nc(-c2ccc3ccccc3c2)cs1)C(F)(F)F (stereo not given)	3.8
CCOC(=O)C1=CCC(c2cccc(C)c2)N(S(=O)(=O)c2ccc(C)cc2)C1 (stereo not given)	3.6
COCCNC(=O)C1CCCN(Cc2ccccc2Cl)CC1 (stereo not given)	0.7
CC1(C(=O)NS(=O)(=O)c2ccc(Cl)cc2)CCN1C(=O)Cc1ccc(Cl)cc1Cl (stereo not given)	-4.2
CCOC(=O)C1=CCN(S(=O)(=O)c2ccc(C)cc2)C1c1ccc(C)cc1 (stereo not given)	-0.4
CCc1nc2ccc(C(=O)N(CC)CCN(C)C)cn2c1N(C)Cc1cccs1	-3.7
CS(=O)(=O)c1cccc(-c2ccc3nncn3c2)c1	-0.1
Cc1cccc(S(=O)(=O)N(C)C[C@H]2OCc3cnnn3CCCC(=O)N([C@H](C)CO)C[C@H]2C)c1	2.8
Nc1nc2cc(Cl)ccc2n1N	-1.9
Cc1cc(Cl)ccc1C(O)c1ncc(-c2ccccc2Cl)[nH]1 (stereo not given)	-0.9
CC1(C(=O)NCc2ccc(F)c(F)c2)Cc2c(-c3ccccc3)ccnc2O1 (stereo not given)	3.5
COc1cccc(NC(=O)N(C)C[C@H]2Oc3cc(C#Cc4ccncc4)ccc3S(=O)(=O)N([C@H](C)CO)C[C@H]2C)c1	9.1

Taken from above.
In HNF4A DNA FP, `COc1cccc(NC(=O)N(C)C[C@H]2Oc3cc(C#Cc4ccncc4)ccc3S(=O)(=O)N([C@H](C)CO)C[C@H]2C)c1` has the entry 9.1
In HNF4A DNA FP, `CS(=O)(=O)c1cccc(-c2ccc3nncn3c2)c1` has the entry -0.1

Additional compounds.
molecule	HNF4A DNA FP
CC(C)n1nnnc1C1c2ccccc2C(=O)N1CCCN1CCOCC1 (stereo not given)	0.4
COc1ccccc1CNc1nc(NCCNC(C)=O)c2sccc2n1	-1.3
CO[C@@H]1CN(C)C(=O)c2ccc(NC(C)=O)cc2OC[C@@H](C)N(C(=O)NC2CCCCC2)C[C@H]1C	2.9
COc1cccc(-c2cnc(C(O)c3ccccc3OC)[nH]2)c1 (stereo not given)	-2.2
COc1ccc(CN2C(=O)CCC2(C)c2nnnn2Cc2ccccc2)cc1OC (stereo not given)	-1.4
COc1cc(CCN(C(C)=O)C2C(=O)Nc3ccccc3N=C2c2ccc3c(c2)OCO3)cc(OC)c1 (stereo not given)	-0.1
COc1ccc(CC(N)c2csc(NC(=O)c3cccs3)n2)cc1 (stereo not given)	12.7
CC1(C(=O)NCc2ccccc2Br)CCN1Cc1ccccc1OC(F)F (stereo not given)	1.1
O=C(c1ccc(C(F)(F)F)cc1)N1CCC(=O)N([C@H](COCc2ccccc2)Cc2ccccc2)CC1	3.5
Nc1nc(=O)n(C2CC(O)C(CO)O2)cc1Cl (stereo not given)	5.0
CC(O)(c1ccccc1)c1nc(-c2ccncc2)cs1 (stereo not given)	-4.3
COc1cc(OC)nc(Nc2nc(C(N)COCc3ccccc3)cs2)n1 (stereo not given)	0.2
COc1ccc(NC(=O)C2Cc3c(-c4ccc(NC(C)=O)cc4)ccnc3O2)cc1OC (stereo not given)	0.2
Cc1cccc(C)c1-n1nnnc1C(c1ccnc2ccccc12)N(C)Cc1ccccc1 (stereo not given)	-2.0
Nc1nc2c(ncn2[C@@H]2O[C@H](CNS(=O)(=O)C3CC3)[C@@H](O)[C@H]2O)c(=O)[nH]1	3.9
COC(=O)[C@@]12C[C@@H](CC(=O)NCc3ccc(OC)c(OC)c3)C(=O)N(CCc3ccc(OC)c(OC)c3)C1=CCC(C)(C)C2	4.3
CC(C)c1ccc(CC(=O)N2CCC2(C)C(=O)NS(=O)(=O)c2ccc(Cl)s2)cc1 (stereo not given)	0.3
Cc1cc(C)c2cc(C#N)c(NCCNC(=O)c3ccncc3)nc2c1	2.8
COc1cc(C)ccc1S(=O)(=O)NC(=O)C1(C)CCN1C(=O)C1(c2ccc(Cl)cc2)CCC1 (stereo not given)	2.9
O=S1(=O)C=C[C@@H](CO)N1Cc1ccc(Br)cc1	0.2
COc1ccccc1Cc1c(C(C)(C)C)nc2cc(C)c(Br)c(C)n12	2.7
CC1=C(C(=O)N(C(C)C)C(C)C)CC(CC(=O)NCCN2CCOCC2)C(=O)N1Cc1ccc(C(C)(C)C)cc1 (stereo not given)	3.0
COCCNC(=O)C1(C)CCCN(Cc2ccc(-n3ccnc3)cc2)C1 (stereo not given)	-2.1
CCCNC(=O)C1(C)CCN(C(=O)COc2ccc(Cl)cc2Cl)C1 (stereo not given)	1.1

Exported with the structure last: twelve of the compounds above.
HNF4A DNA FP	SMILES
0.2	COc1cc(OC)nc(Nc2nc(C(N)COCc3ccccc3)cs2)n1 (stereo not given)
0.2	COc1ccc(NC(=O)C2Cc3c(-c4ccc(NC(C)=O)cc4)ccnc3O2)cc1OC (stereo not given)
-2.0	Cc1cccc(C)c1-n1nnnc1C(c1ccnc2ccccc12)N(C)Cc1ccccc1 (stereo not given)
3.9	Nc1nc2c(ncn2[C@@H]2O[C@H](CNS(=O)(=O)C3CC3)[C@@H](O)[C@H]2O)c(=O)[nH]1
4.3	COC(=O)[C@@]12C[C@@H](CC(=O)NCc3ccc(OC)c(OC)c3)C(=O)N(CCc3ccc(OC)c(OC)c3)C1=CCC(C)(C)C2
0.3	CC(C)c1ccc(CC(=O)N2CCC2(C)C(=O)NS(=O)(=O)c2ccc(Cl)s2)cc1 (stereo not given)
2.8	Cc1cc(C)c2cc(C#N)c(NCCNC(=O)c3ccncc3)nc2c1
2.9	COc1cc(C)ccc1S(=O)(=O)NC(=O)C1(C)CCN1C(=O)C1(c2ccc(Cl)cc2)CCC1 (stereo not given)
0.2	O=S1(=O)C=C[C@@H](CO)N1Cc1ccc(Br)cc1
2.7	COc1ccccc1Cc1c(C(C)(C)C)nc2cc(C)c(Br)c(C)n12
3.0	CC1=C(C(=O)N(C(C)C)C(C)C)CC(CC(=O)NCCN2CCOCC2)C(=O)N1Cc1ccc(C(C)(C)C)cc1 (stereo not given)
-2.1	COCCNC(=O)C1(C)CCCN(Cc2ccc(-n3ccnc3)cc2)C1 (stereo not given)

Carrying on.
molecule	HNF4A DNA FP
Cn1nc(C(C)(C)C)cc1C(=O)N1CCCCC1c1cc(C(=O)Nc2ccc(F)c(Cl)c2)no1 (stereo not given)	0.9
CC(C)CCN1C(=O)c2ccccc2C1c1nnnn1Cc1ccccc1 (stereo not given)	1.6
CN[C@H]1C[C@H]2c3cc(Oc4ccccc4C)ccc3CCN2C(=O)[C@H]1[C@H](C)O	3.9
CC1=C(C(=O)N(C(C)C)C(C)C)CC(CC(=O)NC2CC2)C(=O)N1Cc1ccccc1 (stereo not given)	-1.5
CC1(C(=O)Nc2ccccc2Br)CCN1C(=O)Cc1ccccc1Cl (stereo not given)	-2.6
COc1cc(OC)cc(C(=O)OCC(=O)NC2CCCCCCC2)c1	-0.2
CCC(c1nnnn1C(C)(C)C)N1CCN(C/C=C/c2ccccc2)CC1 (stereo not given)	3.7
CN1CCN(C(=O)c2cccc(-c3cnc4cnc(-c5ccccc5Oc5ccccc5)cn34)c2)CC1	-2.5
O=C(NCC1CCCCC1)c1ccc2nc([C@@H]3O[C@H](CO)[C@H](O)[C@H](O)[C@H]3O)[nH]c2c1	-2.0
Cc1ccc(C(O)c2ncc(-c3ccc4ccccc4c3)[nH]2)c(C)c1 (stereo not given)	4.9
COc1ccc2c(c1)C(C)(Cc1ccc(C(=O)c3ccccc3)cc1)C(=O)N2 (stereo not given)	-4.2
O=C(Nc1nnc([C@@H]2C[C@H](O)[C@@H](CO)O2)s1)c1cccc(Cl)c1	-0.4
COc1ccccc1CNC(=O)Nc1nnc([C@H]2C[C@H](O)[C@@H](CO)O2)s1	0.3
CCOC(=O)[C@]12CCCC=C1N(Cc1ccccc1)C(=O)[C@H](CC(=O)NCCCCc1ccccc1)C2	1.5
Cc1ccc(S(=O)(=O)N2CCC(=O)N([C@H](COCc3ccccc3)C(C)C)CC2)cc1	1.1
O=C(O)C1=CCC=CC1C(=O)O (stereo not given)	-29.5
O=C(NCc1cccs1)C1C(=O)Nc2ccccc2C(=O)N1Cc1ccccc1 (stereo not given)	6.1
CCCNC(=O)c1cc(C2CCCN(C(=O)C3CC3)C2)on1 (stereo not given)	0.6
C[C@@H]1CN([C@@H](C)CO)C(=O)CCCn2nncc2CO[C@H]1CN(C)Cc1ccc2c(c1)OCO2	1.7
COCCn1c(N)c(N(Cc2ccccc2)C(=O)C(C)Oc2ccc(Br)cc2)c(=O)[nH]c1=O (stereo not given)	1.2
OC[C@@H]1CN(Cc2ccc(Cl)cc2)C[C@H](n2cnc3c(N4CCOCC4)ncnc32)O1	2.4
Cc1ccccc1NC(=O)C(C)OC(=O)C1CCCO1 (stereo not given)	-2.5
Cc1cccc(C)c1NC(=O)C1(C)CSCC(=O)N1CC(F)(F)F (stereo not given)	-2.0
CCOC(=O)C1CCCN(C(=O)c2cccc3ccccc23)CC1 (stereo not given)	-3.9
Cc1cccc(C)c1-n1nnnc1C1(C)CCC(=O)N1CC(F)(F)F (stereo not given)	0.9
CCc1nc2c(OCC(N)=O)cccn2c1N(C)C(=O)c1cccs1	3.2
C[C@@H]1CC2=C(C(=O)OC(C)(C)O2)[C@H](c2ccc(Cl)cc2)O1	2.5
CC(C)(C)n1nnnc1C(c1cc2ccccc2o1)N1CCCCC1 (stereo not given)	-0.1
CC(=O)Oc1ccccc1Cn1c(C)c(C(=O)NCc2ccc(F)cc2)sc1=O	6.2
Cc1ccc(C(O)c2ncc(-c3ccc(F)cc3)[nH]2)c(C)c1 (stereo not given)	1.0
O=C1NC[C@@H](CCCCN2CCN(CC3CCCCC3)C(=O)C2=O)N(Cc2ccccc2)C1=O	-3.9
O=C(/C=C/[C@H]1O[C@@H](n2ccc(=O)[nH]c2=O)[C@H](O)[C@@H]1O)N1CCN(CCc2ccccc2)CC1	-1.2
CC(C)COC(=O)N(C)C[C@H]1OCc2cnnn2CCCC(=O)N([C@H](C)CO)C[C@H]1C	4.3
CC1(Cc2cccc(C(F)(F)F)c2)C(=O)Nc2ccc(-c3ccc(F)c(Cl)c3)cc21 (stereo not given)	-3.5
CCCCC[C@@H](C)N1C[C@H](COCc2ccccc2)Oc2cc(N3CCC[C@H]3CO)ccc2S1(=O)=O	0.5
Nc1[nH]c(C(=O)c2ccccc2)c(-c2ccc(F)cc2)c1C(=O)NCc1ccccc1	-0.2
O=C(NCc1ccccc1)C(CCc1ccccc1)n1c(=O)c(-c2ccccc2)nc2ccccc21 (stereo not given)	1.6
C[C@H](NC(=O)[C@@H]1CCCN1C(=O)[C@@H]1CCCN1C(=O)c1ccc(Cl)cc1)c1ccccc1	1.7
COCCNC(=O)c1cc(-c2ccccc2)sc1N	54.7*
COc1cccc(-c2cnc(C(O)c3ccc(F)cc3)[nH]2)c1 (stereo not given)	-0.3
CC1(C(=O)NCc2ccccc2)CCC(=O)N1CCc1c[nH]c2ccccc12 (stereo not given)	1.7
COC(=O)[C@@]1(Cc2ccc(F)cc2)[C@H]2c3cc(C(=O)N4CCCC4)n(CCc4c[nH]c5ccccc45)c3C[C@H]2CN1C(=O)c1ccccc1	4.9
O=C(NCc1ccccc1)c1cc(C2CCCCN2C(=O)CCCc2ccccc2)on1 (stereo not given)	-2.8
Cc1ccc(C)c(CC(=O)N2CCCCC2c2cc(C(=O)Nc3cccc(C#N)c3)no2)c1 (stereo not given)	-0.8
COc1ccc(C(=O)NC(=S)Nc2ccc3[nH]c(=O)[nH]c3c2)cc1Br	0.7
CC(C)(C)c1ccc(S(=O)(=O)NC(=O)C2(C)CCN2C(=O)c2cccc3ccccc23)cc1 (stereo not given)	1.6
